YopH inh = inhibitors of Yersinia enterocolitica YopH tyrosine phosphatase; fluorescence Ex485/Em525; inhibition, %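 (about 10 µM by stock and volumes)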; actives 0.16% (n = 140,000); AID 898;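 active = inhibition of 50% or more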;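 note: controls were vehicle for no effect and minimum signal wells for full effect; inactives centre near -20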
Mtb betalactam = beta-lactam sensitization of Mtb H37Rv. AID 434955. M. tuberculosis H37Rv growth with meropenem, percent inhibition; hits of this screen are not shown here. inhibition, % at 25 µM. actives 0.27% (n = 330,000);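 active = about 74% or more and at least 40 points above the plate without the antibiotic, then above 30% in a dose series; inconclusive = first-round hits that could not be retested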;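 note: growth measured after seven days incubation then overnight dye step; 0% = bacteria only wells and 100% = bacteria with antibiotic; twin plates without the antibiotic show which effects depend on it; some results filed as inactive read as strong as hits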
Mtb H37Rv = M. tuberculosis H37Rv growth inhibitors, H37Rv strain (AID 1626). M. tuberculosis H37Rv growth inhibition; higher % means a stronger effect. actives 0.95% (n = 220,000). inhibition, % at 10 µM; hits with a dose series show IC50 in µM;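 active = confirmed in a dose series; inconclusive = inhibition above 80% but not taken into the dose series; inactive = below 80% or under 30% at every dose of the series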;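 note: bacteria incubated seven days before Alamar blue readout; 0% = bacteria only wells and 100% = bacteria with antibiotic wells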
RecA splice inh = Mtb RecA intein splicing inhibition; actives 0.75% (n = 290,000); P9WHJ3; inhibition, %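 (about 9 µM by stock and volumes)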; cell-free RecA intein splicing, fluorescence; AID 2221; in the data active = inhibition above about 30%; inconclusive = no clear call, values can overlap the other calls;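 note: 0% = vehicle wells and 100% = reference inhibitor control wells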
Target sequence (P9WHJ3 whole entry, looked up, canonical isoform): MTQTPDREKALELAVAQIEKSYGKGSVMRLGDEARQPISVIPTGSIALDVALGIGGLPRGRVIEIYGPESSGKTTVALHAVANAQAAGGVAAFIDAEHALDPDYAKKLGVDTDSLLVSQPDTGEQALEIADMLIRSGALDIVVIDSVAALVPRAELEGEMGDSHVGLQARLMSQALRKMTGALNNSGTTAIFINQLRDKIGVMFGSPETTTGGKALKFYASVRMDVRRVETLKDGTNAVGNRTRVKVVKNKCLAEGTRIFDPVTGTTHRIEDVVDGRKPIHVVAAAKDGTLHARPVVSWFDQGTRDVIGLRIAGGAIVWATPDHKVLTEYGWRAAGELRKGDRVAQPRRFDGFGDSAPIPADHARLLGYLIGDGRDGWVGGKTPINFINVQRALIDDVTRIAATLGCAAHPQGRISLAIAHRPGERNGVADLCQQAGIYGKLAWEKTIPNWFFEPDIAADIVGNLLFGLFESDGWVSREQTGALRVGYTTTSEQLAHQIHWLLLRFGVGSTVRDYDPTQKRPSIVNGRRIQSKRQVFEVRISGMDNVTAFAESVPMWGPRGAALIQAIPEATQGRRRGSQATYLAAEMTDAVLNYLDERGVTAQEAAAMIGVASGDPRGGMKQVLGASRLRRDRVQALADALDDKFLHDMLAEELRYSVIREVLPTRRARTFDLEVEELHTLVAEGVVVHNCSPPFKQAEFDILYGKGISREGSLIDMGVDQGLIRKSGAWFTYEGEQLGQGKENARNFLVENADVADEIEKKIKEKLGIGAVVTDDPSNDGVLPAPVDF
Arbovirus anti = blocks arbovirus infection | arbovirus infection cell-based antiviral screen | inhibition, % at 10 µM | actives 0.37% (n = 200,000) | AID 1251;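 active = inhibition from about 30%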;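 note: bluetongue infection of BSR cells; cell survival read as ATP light after 72 h; 0% = infected wells without compound and 100% = uninfected wells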
Arbovirus anti repeat = also measured in Arbovirus anti; calls as there; inhibition, %; measured here: 10K subset replicate screen; many hits read low in the repeat;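 first of two repeat runs on a subset; 0% = infected and 100% = uninfected wells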
Numbers without * were called inactive; ? = inconclusive; / = not tested or not shown. This is a subset; count on the stated rates, not on these rows.

The first seven records, to show the layout:
SMILES | YopH inh | Mtb betalactam | Mtb H37Rv | RecA splice inh | Arbovirus anti | others
Cc1nc(N2CCCCC2)sc1C(=O)c1ccc(SCCO)c([N+](=O)[O-])c1 | / | 4 | 1% | -1.5 | -10
CC(C)CCOc1cccc(OCC(=O)Nc2ccncc2)c1 | / | 99 | / | 2.0 | /
CCOC(=O)c1cnn(-c2ccccc2)c1-n1cccc1C(=O)C(=O)Nc1ccccc1 | -22 | 3 | -2% | 4.7 | 13
C=CCn1c(SCC(=O)NC2CC2)nc2sc(CC)cc2c1=O | / | -3 | -2% | -0.3 | 3
O=C(NCCc1nnc2ccc(N3CCCCCC3)nn12)c1ccccc1F | / | -4 | / | -0.6 | /
O=C(N/C(=C\c1ccc(Br)cc1)C(=O)N1CCCC1)c1ccccc1F | / | -2 | 4% | 0.5 | 4
COc1ccc(CC(=O)NCCc2ccc(OC)c(OC)c2)cc1 | / | -8 | / | -1.1 | /

All compounds of this part, from the first entry:
SMILES | YopH inh | Mtb betalactam | Mtb H37Rv | RecA splice inh | Arbovirus anti | others
Cc1nc(N2CCCCC2)sc1C(=O)c1ccc(SCCO)c([N+](=O)[O-])c1 | / | 4 | 1% | -1.5 | -10
CC(C)CCOc1cccc(OCC(=O)Nc2ccncc2)c1 | / | 99 | / | 2.0 | /
CCOC(=O)c1cnn(-c2ccccc2)c1-n1cccc1C(=O)C(=O)Nc1ccccc1 | -22 | 3 | -2% | 4.7 | 13
C=CCn1c(SCC(=O)NC2CC2)nc2sc(CC)cc2c1=O | / | -3 | -2% | -0.3 | 3
O=C(NCCc1nnc2ccc(N3CCCCCC3)nn12)c1ccccc1F | / | -4 | / | -0.6 | /
O=C(N/C(=C\c1ccc(Br)cc1)C(=O)N1CCCC1)c1ccccc1F | / | -2 | 4% | 0.5 | 4
COc1ccc(CC(=O)NCCc2ccc(OC)c(OC)c2)cc1 | / | -8 | / | -1.1 | /
CN(Cc1ccno1)C(=O)CC1C(=O)NCCN1CC(c1ccccc1)c1ccccc1 (centres undefined) | / | -5 | 5% | -0.5 | 5
Cc1cccc(NC(=O)CN(c2ccc(C(C)C)cc2)S(=O)(=O)c2c(C)nn(C)c2C)n1 | -43 | -6 | 7% | 2.3 | -10
COc1ccc(Cl)cc1NC(=O)CSc1nnc(C)c(=O)n1N | / | -14 | / | -0.5 | /
Cc1ccc(NC2CCCN(C(=O)c3cccc(-c4ncc[nH]4)c3)C2)cc1C (centres undefined) | / | -1 | / | -2.0 | /
CN(C)c1ccc(/C=N\Nc2ccccn2)cc1 | / | -4 | / | -2.9 | /
O=C(c1cc2cc(F)ccc2[nH]1)N1CCC(Cc2ccccc2)CC1 | / | 14 | / | -1.1 | /
COc1ccc(C(CCNC(C)c2ccccc2)c2ccc(F)cc2)cc1 (centres undefined) | -2 | 72 | 6% | 7.1 | -21
O=c1nc(SCc2c(F)cccc2Cl)nc(-c2ccc(Cl)cc2)[nH]1 | / | -12 | -3% | -10 | /
COCCn1c(SCC(=O)c2cc(C)n(C)c2C)nc2ccccc2c1=O | / | 4 | -5% | 0.1 | -2
COc1ccc(/C=C2\SC(=S)N(CCC(=O)N3CCOCC3)C2=O)cc1 | / | -12 | / | 3.2 | /
Cc1ccc(S(=O)(=O)NC(=O)c2ccccc2)cc1C(C)C | / | -2 | -4% | -8.9 | 1
Cc1ccc(C(=O)NCCSc2ccccc2)cc1S(=O)(=O)Nc1ccccc1 | -18 | -6 | -1% | / | -8
COc1ccc(CN(Cc2ccc(C(=O)O)cc2)C(=S)Nc2ccccc2F)cc1OC | / | -6 | -6% | 3.8 | -2
CC(=O)N1CCc2cc(NS(=O)(=O)c3cccs3)ccc21 | -34 | 2 | -10% | -3.2 | 2
CCOc1ncccc1C(=O)OCc1cc(=O)oc2c(C)c(C)ccc12 | -15 | / | -2% | -0.9 | 8
CCN1C(=O)NC(c2ccccc2)(c2ccccc2)C1=O | / | 16 | / | -0.8 | /
COC(=O)c1ccc(-c2noc(CN(C)Cc3ccncc3C)n2)cc1 | / | 36 | -5% | 2.2 | 14
O=C(COc1cccnc1[N+](=O)[O-])N1CCN(S(=O)(=O)c2ccc3ccccc3c2)CC1 | -25 | -6 | -4% | -1.2 | 6
COc1cc(OC)c2c(c1O)OC(c1ccccc1)CC2=O (centres undefined) | / | -7 | -5% | -4.6 | 5
O=C(COC(=O)c1cnccn1)c1ccc(-c2ccccc2)cc1 | / | 3 | / | -3.4 | /
O=C(Nc1cccs1)Nc1ccc(Br)cc1F | -23 | 1 | 3% | 3.9 | 17
CCCCCn1c(=O)c(C(=O)NC(C)c2ccccc2)c(O)c2ccccc21 (centres undefined) | / | 7 | / | -4.9 | /
CN(Cc1ccc(-n2cccn2)cc1)C(=O)c1cnn2c1NC(c1ccco1)CC2C(F)(F)F (centres undefined) | 10 | / | 4% | / | -1
Nc1[nH][nH]c(=O)c1N=Nc1cccc(Cl)c1 | / | -2 | 1% | 3.9 | -7
O=C(CSc1nc2ccccc2s1)Nc1ccc2c(c1)OCO2 | -9 | 63 | 76% | 1.0 | -18
Cc1ccc(S(=O)(=O)N2CCN(C(=O)c3ccc(S(=O)(=O)N4CCCC4)cc3)CC2)cc1 | / | -3 | / | -3.9 | /
CCOC(=O)C1CCN(Cc2cccc(Oc3ccccc3)c2)CC1 | / | 2 | / | -0.5 | /
CCCc1nc2oc3ccccc3c(=O)c2c(=O)n1CCCOC | / | -6 | 3% | -1.5 | /
CSc1cccc(NC(C)=O)c1 | -23 | -2 | 7% | -2.6 | -1
COc1ccc2cc(C(=O)NCc3ccco3)c(=O)oc2c1 | 28 | 5 | -12% | -3.7 | 4
Cc1csc(NC(=O)c2ccco2)n1 | 8 | 7 | -10% | 2.4 | 1
CCC(=O)Nc1c2c(nn1-c1ccccc1)CSC2 | / | 2 | / | -3.2 | /
Cc1nn(C)c(C)c1CNC(=O)/C=C/c1ccccc1F | -16 | -4 | -1% | -0.2 | 0
COc1cccc(OCC(O)CN2CCC(Cc3ccccc3)CC2)c1 (centres undefined) | -8 | -5 | -2% | -0.2 | -9
CC(=Nc1ccc(C)c(C)c1)C1=C(O)CCC1=O | -26 | 4 | ? | -0.9 | 1
O=C(COC(=O)c1ccc2ncsc2c1)NC(=O)NCc1ccccc1 | / | 17 | -5% | -1.7 | -2
COc1cccc(OC)c1C(=O)Nc1ccnn1C | / | 1 | / | -1.1 | /
N#CCCn1cc(C(CC(=O)c2ccccc2)C(=O)O)c2ccccc21 (centres undefined) | 7 | -4 | 2% | -0.1 | -3
COc1ccc(-n2nc(C(=O)N3CCCCC3)c3ccccc3c2=O)cc1 | 0 | 12 | 1% | / | -3
CCOc1ccc(NC(=O)Cn2sc3nc(C)cc(C)c3c2=O)cc1 | / | -4 | ? | -0.1 | /
Nc1nc2c(ccc3ccccc32)s1 | / | -4 | / | 0.6 | /
COc1ccc(-c2noc(CCCOc3ccc(Cl)cc3Cl)n2)cc1 | -4 | -5 | 25% | 1.4 | 0
Cc1ncc([N+](=O)[O-])n1CC(=O)NCCc1ccccc1 | / | 3 | 2% | / | 4
Cc1[nH]n(-c2ccccc2)c(=O)c1/C=N/NC(=O)C(C)C | / | 62 | -10% | 2.0 | 0
COc1cc(OC)c(Nc2cc(C)nc3nc(C)nn23)cc1Cl | -20 | 4 | 11% | -0.5 | -1 | Arbovirus anti repeat=1
COc1ccc(OC)c(NC(=O)c2cnc(Nc3ccccc3OC)c3ccccc23)c1 | -23 | 4 | 6% | -11 | -18
CC(C)c1ccc(C2C(C(=O)c3ccco3)=C(O)C(=O)N2CC2CCCO2)cc1 (centres undefined) | / | -3 | / | 2.7 | /
C=CCC1(C#N)C(=S)NC2=C(C(=O)CC(C)(C)C2)C1c1ccc(Br)cc1 (centres undefined) | -14 | 13 | 1% | -1.8 | -4
COc1ccc(NC(=O)CN(C)S(=O)(=O)c2ccc(Br)s2)cc1 | / | -3 | / | -1.7 | /
O=C(O)c1sccc1NC(=O)c1c(Cl)cccc1Cl | / | 0 | / | 1.2 | /
O=C1NC2c3ccccc3CC2O1 (centres undefined) | / | 60 | / | -1.0 | /
CC(C)CC(=O)Nc1ccc2oc(-c3ccncc3)nc2c1 | -36 | 2 | 4% | -0.2 | -7
Fc1ccccc1Sc1ccccc1CNC1=NCCN1 | -15 | -5 | 2% | 1.3 | -10

Later entries
SMILES | YopH inh | Mtb betalactam | Mtb H37Rv | RecA splice inh | Arbovirus anti | others
COC(=O)[C@@]1(Cc2ccc(F)cc2)[C@H]2c3cc(C(=O)N(C)C)n(Cc4ccccc4)c3C[C@H]2CN1C(=O)c1ccccc1 | -8 | 74 | 27% | / | -19
Cc1noc(C)c1CCC(=O)N1CCCC(CCC(=O)NCc2ccccc2F)C1 (centres undefined) | / | 2 | 4% | / | -1
CN(C(=O)CSC1=NC2C(N=N1)c1cc(Br)ccc1N2C)C1CCCCC1 (centres undefined) | / | 4 | -6% | 3.9 | -7
CC(C)(C)c1ccc(NC(=O)N2CCCN(c3c(Cl)cncc3Cl)CC2)cc1 | / | -5 | -3% | 4.8 | /
O=C(OCC(=O)N1CCN(C(=O)c2ccco2)CC1)c1ccccc1C(=O)c1ccccc1 | -24 | -12 | -8% | 1.4 | 8
N/C(=N\OC(=O)c1ccc(Cl)c(Cl)c1)c1ccccn1 | -4 | 95 | 9% | -0.8 | -2
Cc1cccc(NC(=O)C2CCCN(S(=O)(=O)c3ccc4[nH]c(=O)ccc4c3)C2)c1 (centres undefined) | / | -5 | / | 0.3 | /
Cc1ccc(S(=O)(=O)Nc2ccc(S(=O)(=O)NC(C)(C)C)cc2)cc1 | -33 | -1 | -7% | / | 6
CC(C(=O)Nc1cc([N+](=O)[O-])ccc1Cl)N1CCN(c2ccccc2)CC1 (centres undefined) | 6 | -5 | 4% | -0.9 | 2
CS(=O)(=O)N(Cc1ccccc1)c1ccc(C(=O)NCc2ccccc2)cc1 | -14 | -11 | -6% | -7.0 | 5
CCOC(=O)CSc1ncc(OC)c(=O)[nH]1 | -48 | 10 | 4% | 0.2 | 7
COC(=O)c1cc2ccccc2c(=O)s1 | -43 | -4 | 4% | 9.0 | 0
CN(C)CCCN(C(=O)c1cc2ccccc2oc1=O)c1nc2c(F)cccc2s1 | -5 | 5 | -1% | -1.7 | 5
COc1cc(Cl)cc(C=O)c1OCC(=O)O | / | -9 | 1% | -0.9 | 5
Cc1cccc(C)c1NC(=O)Cn1c(=O)n(CCCC(=O)NC2CCN(Cc3ccccc3)CC2)c(=O)c2ccccc21 | / | 1 | / | -0.1 | /
COc1ccc(/C=N\NC(=O)c2ccc([N+](=O)[O-])c(C)c2)cc1COc1ccccc1C(N)=O | / | -9 | / | 8.4 | /
C#CCNC(=O)c1ccc(OCc2ccccc2)cc1Cl | / | 27 | 5% | 1.6 | -14
O=C(c1ccccc1C(=O)N1CCN(c2ccc(F)cc2)CC1)N1CCN(c2ccc(F)cc2)CC1 | -4 | 1 | -3% | 2.2 | -3
O=C(O)C1C2CCC(O2)C1C(=O)Nc1ccc(Cl)cc1F (centres undefined) | / | 1 | / | 0.3 | /
NS(=O)(=O)c1ccc(Nc2ccccc2)c([N+](=O)[O-])c1 | / | -7 | 0% | 3.9 | /
O=C(CN1C(=O)NC2(CCCC2)C1=O)Nc1ccc(C(F)(F)F)cc1 | / | -2 | / | -0.3 | /
COCCCNC(=O)c1ccc(N(C)S(C)(=O)=O)cc1 | 9 | -6 | 0% | -1.8 | 0
COc1cc(CNCCO)cc(Cl)c1OCc1ccccc1Cl | / | 69 | 3% | 3.8 | -34
Cn1cnnc1SC(C(=O)Nc1cccc(C(F)(F)F)c1)c1ccccc1 (centres undefined) | -37 | -4 | -3% | 0.6 | 6
Cc1ccc(S(=O)(=O)N2CCCN(C(=O)OC(C)(C)C)CC2)cc1 | / | -10 | -4% | -2.9 | /
N#Cc1cc2c([nH]c1=S)CCCCCC2 | -11 | 7 | 1% | 0.8 | 5
O=C(Nc1ccc(F)cc1)c1cc2c(s1)CCCC2 | / | 57 | 79% | 1.4 | /
CCOC(=O)C1CCN(S(=O)(=O)Cc2ccccc2)C1=O (centres undefined) | -33 | -7 | -14% | -0.4 | -1
Cc1ccc(NC(=O)c2cc3ccccc3oc2=O)cc1S(=O)(=O)N(C)C | / | -2 | -3% | 0.6 | -9
Cc1nc(NCc2ccccn2)c2c3c(sc2n1)CCCC3 | / | 21 | -5% | 3.3 | -7
Cn1c2ccccc2c2n[nH]c(=O)nc21 | / | -2 | 10% | 0.8 | 18
Cc1ccc2[nH]c(CSc3ccccc3)cc(=O)c2c1 | / | 6 | / | -0.5 | /
CCS(=O)(=O)c1ccc(C(=O)NC)c(Cl)c1Cl | / | 21 | -3% | 0.3 | 1
